HPGD inh: inhibitors of human 15-hydroxyprostaglandin dehydrogenase (HPGD); Potency, µM, without a hit: top-dose activity change, negative = inhibition, most hits filed as inhibitors; purified HPGD, NADH fluorescence kinetic, PGE2 substrate; P15428; 150,000 tested, 4.3% active; active = well fitted inhibition curve with a large enough effect (not every such curve was filed as active); inconclusive = small, poorly fitted or top-dose-only effect, or another doubt; inactive = no such curve, though single readings can be large or run the other way;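 further: top concentration of the series not given in the record; plate controls included wells without enzyme; inactives centre near -10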
Target sequence (P15428 whole entry, looked up): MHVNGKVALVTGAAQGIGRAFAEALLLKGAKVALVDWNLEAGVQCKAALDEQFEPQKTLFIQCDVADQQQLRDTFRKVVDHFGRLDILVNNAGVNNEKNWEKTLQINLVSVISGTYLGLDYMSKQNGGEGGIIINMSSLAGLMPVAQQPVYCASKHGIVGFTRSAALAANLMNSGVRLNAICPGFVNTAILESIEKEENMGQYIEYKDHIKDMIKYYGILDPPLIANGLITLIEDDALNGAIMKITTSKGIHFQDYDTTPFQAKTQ
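20 nM HPGD preincubated 15 min at room temperature with compound in 50 mM Tris-HCl pH 8, 0.01% Tween 20. Started with 1 mM NAD+ and 30 uM prostaglandin E2; NADH fluorescence (360/450 nm) read 5 times over 30-s intervals, last minus first.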
The depositor's hits bear a star; ? = inconclusive; & = joins results of further samples. On the % scale 0 is the no-effect control and ±100 the full control effect; potency means the concentration at half of the fitted maximal effect. The list is partial, so the mix of outcomes need not match the whole.

SMILES	HPGD inh
Cc1ccc(C(=O)/C=C/c2ccc3c(c2)OCO3)o1	-19.4%
CCn1ccnc1C(O)c1ccc(N(C)C)cc1 (stereo not given)	-1.6%
CC(C)c1nc(SCC(=O)Nc2ccc3c(c2)OCO3)n[nH]1	-19.8%
Cc1ccc(C)c(C(=O)NC2CC(C)(C)NC(C)(C)C2)c1	-15.3%
Cc1nc2ccc(N3C(=O)CCC3=O)cc2[nH]1	-13.1%
COC(=O)c1ccc(OCC(O)CN2C(=O)NC(C)(C)C2=O)cc1 (stereo not given)	0.5%
CCOC(=O)NC(=O)CSc1nc2ccc(OCC)cc2[nH]1	-6.4%
COc1cccc(OC)c1/C(O)=C(\C#N)c1nc2ccccc2[nH]1	-2.3%
O=[N+]([O-])c1cc(-c2n[nH]c(-c3ccccc3)n2)cc([N+](=O)[O-])c1	-2.4%
COC(=O)C(=Cc1ccc(OCc2ccc([N+](=O)[O-])cc2)c(OC)c1)C(=O)OC	-16.1%
Cc1nc(SCC(=O)c2c(C)[nH]c3ccccc23)c2c(=O)n(C)c(=O)n(CC(C)C)c2n1	-3.0%
CCOC(=O)C1=NOC(CNC(=O)c2c(-c3ccccc3Cl)noc2C)C1 (stereo not given)	-7.3%
COc1ccc(/C=N\NC(=O)CNC(=O)C(c2ccccc2)c2ccccc2)cc1[N+](=O)[O-]	-12.5%
N#Cc1cc(N)c(Nc2ccccc2)cc1C#N	?
COc1ccccc1Nc1nnc(SCc2cc(=O)n3cc(C)ccc3n2)s1	-25.3%
CCCN1Cc2cccc(C(=O)Nc3ccc(CN4CCCC4)cc3)c2C1=O	-19.7%
Cc1ccc(C2c3sc(=O)[nH]c3SC3C(=O)NC(=O)C32)cc1 (stereo not given)	-3.5%
Cc1cccc(C)c1NC(=O)Cn1cnc2c(=O)n(C)c(=O)n(C)c21	-11.2%
COc1ccc(-c2noc(CCCC(=O)Nc3ccc(C(N)=O)cc3)n2)cc1	1.7%
CN1CCN(CCNC(=O)c2cc3c(=O)n(C)c4ccccc4c3n2C)CC1	?

Shown bar-delimited: entries from further up.
smiles | HPGD inh
O=[N+]([O-])c1cc(-c2n[nH]c(-c3ccccc3)n2)cc([N+](=O)[O-])c1 | -2.4%
COC(=O)C(=Cc1ccc(OCc2ccc([N+](=O)[O-])cc2)c(OC)c1)C(=O)OC | -16.1%
Cc1nc(SCC(=O)c2c(C)[nH]c3ccccc23)c2c(=O)n(C)c(=O)n(CC(C)C)c2n1 | -3.0%
CCOC(=O)C1=NOC(CNC(=O)c2c(-c3ccccc3Cl)noc2C)C1 (stereo not given) | -7.3%

Going on with the list.
SMILES	HPGD inh
Fc1nc(N2CCCC2)c(F)c(Oc2ccccc2Oc2c(F)c(F)nc(N3CCCC3)c2F)c1F	?
Nc1nnc(SCC(=O)Nc2ccc(S(=O)(=O)N3CCOCC3)cc2)s1	-8.7%
CCCCC(CC)COC(=O)COc1ccc(Cl)cc1Cl (stereo not given)	-4.7%
Cc1ccc2nc3c(cc(C#N)c(=N)n3CC3CCCO3)c(=O)n2c1 (stereo not given)	?
CC(=O)N1N=C(c2ccc3nccnc3c2)CC1c1ccccc1 (stereo not given)	-8.3%
COC(=O)C1CCN(CC(=O)Nc2sc3c(c2C#N)CCC3)CC1	-16.7%
O=C(Cn1cnc2c(nnn2Cc2ccc(F)cc2)c1=O)N1CCCc2ccccc21	-14.9%
O=C(O)c1ccc(Cl)c(S(=O)(=O)N2CCCCCC2)c1	-0.5%
Cc1ccc(C(=O)CSc2nnc(CNc3nc(-c4ccccc4)cs3)n2C)cc1	-20.6%
O=C(Nc1ccc2c(c1)OCCO2)C1CCN(S(=O)(=O)c2cccs2)CC1	-7.0%
CCOc1ccc(C(=O)N/N=C(\c2ccccc2)c2ccccn2)cc1	?
O=C(CCCc1ccccc1)c1ccc2c(c1)OCCO2	-29.5%
COc1cccc(N2CCN(c3ncnc4c3[nH]c3ccc(F)cc34)CC2C)c1 (stereo not given)	-17.3%
COc1ccc(S(=O)(=O)N2C3CCC2CC(NC(=O)C2CC2)C3)cc1 (stereo not given)	-10.1%
COc1ccc(-n2c(-c3cccc(OC)c3)nc(=S)c3c2CCCC3)cc1	-20.3%
CC(C(=O)N=c1sc2ccccc2n1C)N1C(=O)C2CC=CCC2C1=O (stereo not given)	-19.1%
Cc1ccc(-c2noc(CN(C(=O)c3cccc(Br)c3)C(C)C)n2)cc1	-0.9%
CCCn1c(=N)n(CC(O)COc2cccc(C)c2)c2ccccc21 (stereo not given)	-21.2%
CCOC(=O)C(C)Oc1c(Br)cc(C2NC(=O)NC(C)=C2C(C)=O)cc1OCC (stereo not given)	-10.0%
CC(=O)Nc1c(O)nc(SCc2ccc(Cl)cc2)[nH]c1=O	-8.2%
CCCN(C(=O)c1ccccc1N)c1c(C)n(C)n(-c2ccccc2)c1=O	-12.1%
O=c1c2c3c(sc2nc(NCCO)n1Cc1ccco1)CCCCC3	-13.1%
COc1ccc(NC(=O)CSc2nc3c(c(=O)n2-c2ccc(C)cc2)SCC3)c(OC)c1	?
O=C(NCCN1C(=O)S/C(=C\c2ccc(Cl)cc2)C1=O)c1ccc(F)c(S(=O)(=O)N2CCOCC2)c1	-10.7%
NS(=O)(=O)c1ccc(NC(=O)CSc2nnc(-c3cnccn3)n2-c2ccccc2)cc1	-10.7%
CC(=O)OC(C#CCN1CCOCC1)c1ccccc1 (stereo not given)	1.2%
O=C(O)[C@@H](O)[C@@H](O)[C@H](O)[C@H](O)CO	-4.2%
COc1ccc(CNC(=O)C(C)OC(=O)c2cccn2C)cc1 (stereo not given)	-10.3%
CCN1CCN(CCNC(=O)CSCc2nc(-c3ccc(OC)c(OC)c3)oc2C)CC1	?
O=C1CCC([N+](=O)[O-])C(c2cc3c(cc2Br)OCO3)N1 (stereo not given)	-10.0%
Cc1ccccc1-c1cc(-c2ccccc2O)on1	14.1µM*
COc1ccc(-n2nc(C(=O)NCc3ccco3)c3c4ccccc4n(C)c3c2=O)cc1	?
O=C(Nc1nc2ccc(F)cc2s1)C1CCN(S(=O)(=O)c2cc([N+](=O)[O-])ccc2Cl)CC1	-14.9%
C=CCn1cc(/C=N/Nc2nc3ccccc3[nH]2)c2ccccc21	?
CN1CCc2c(sc3c2c(=O)n(-c2ccccc2)c2n[nH]c(=S)n32)C1	-11.8%
Cc1cc(Cc2cc(C)cc(C(C)(C)C)c2O)c(O)c(Cc2cc(C)cc(C(C)(C)C)c2O)c1	-3.7%
N#C/C(=C\c1ccc(-c2ccc(Br)cc2)o1)C(=O)NCCc1c[nH]c2ccccc12	-14.0%
Cc1cc(C)n(CC(=O)Nc2ccccc2)n1	-13.7%
COc1ccc(/C=N/NC(=O)c2cc(-c3ccccc3OC(C)C)nc3ccccc23)cc1CN1CCOCC1	-16.4%
O=C(Cc1ccccc1)N/N=C/c1cc2c(cc1Cl)OCO2	-20.8%

Grouped by structure: the entries above containing a COOH group
SMILES	HPGD inh
O=C(O)c1ccc(Cl)c(S(=O)(=O)N2CCCCCC2)c1	-0.5%
O=C(O)[C@@H](O)[C@@H](O)[C@H](O)[C@H](O)CO	-4.2%

HPGD inh, what is marked active above.
SMILES	HPGD inh
Cc1ccccc1-c1cc(-c2ccccc2O)on1	14.1µM*

Carrying on.
SMILES	HPGD inh
CN(C)C(=S)SC(=S)N(C)C	-19.8%
CCC(OC(=O)c1cc2sccc2n1C)C(=O)NCc1ccco1 (stereo not given)	?
CCCCC(=O)Nc1nnn(CCC)n1	5.5%
Cc1cccc(N2C(=O)CC(NNc3nc4ccccc4s3)C2=O)c1 (stereo not given)	-15.4%
O=C(OCCN1C(=O)c2ccccc2C1=O)c1cc(S(=O)(=O)N2CCOCC2)ccc1F	-12.4%
CCOC(=O)N1CCN(C(=S)NC2CCCCC2)CC1	-1.7%
COc1ccc(OCC(=O)Nc2ccc(C)cc2)cc1	15.8µM*
O=C(CSc1nccn1-c1ccccc1)N1CCc2ccccc21	-1.2%
CC(C)(C)n1nnnc1CN1CCN2CCCC2C1 (stereo not given)	-13.6%
CCOC(=O)c1c(/N=C/c2cccc([N+](=O)[O-])c2O)sc(C)c1C	?
CCCCOc1ccc(CN2CCCCC2)cc1	-5.3%
CN(C)C(=O)COc1ccc2cc(-c3ccccc3)c(=O)oc2c1	?
CN(C)S(=O)(=O)c1c(Cl)cccc1Cl	-8.0%
COC(=O)CCCCCN1C(=O)NC(c2ccc(-c3ccccc3)cc2)C(C(=O)OCc2ccccc2)=C1C (stereo not given)	-23.6%&-13.3%
Cc1ccc(-n2c(=O)[nH]c3c(C(N)=O)nc(-c4ccc(C)o4)nc32)cc1	?
O=C(NC1CCCCC1)c1cnn2c(C(F)(F)F)cc(-c3ccco3)nc12	?
CCOc1ccc(OCC)c(NC(=O)CN2CCN(c3cccc(C)c3C)CC2)c1	-3.2%
Cc1nnc(SCCn2c(N3CCCC(C)C3)nc3c2c(=O)[nH]c(=O)n3C)s1 (stereo not given)	-6.1%
CC1CCN(c2nc3c(c(=O)n(C)c(=O)n3C)n2CCSc2ncccn2)CC1	5.8%
COc1cc(CNC(=O)CCCC/C=C\C(C)C)ccc1O	-7.5%&-21.6%&-18.9%
CC(=O)N1c2c(cc(Br)cc2S(=O)(=O)NCc2ccc3c(c2)OCO3)CC1C (stereo not given)	?
Cc1ccc(S(=O)(=O)CCc2ccccn2)cc1	-14.6%
Cc1cc(C(F)F)n2ncc(C(=O)N3CCc4ccccc4C3)c2n1	22.4µM*
O=C(Nc1nccs1)c1ccc(Cl)cc1[N+](=O)[O-]	-1.9%
CCOc1c(S(=O)(=O)N2CCCC2)ccc(Cl)c1Cl	-18.9%
O=C(Nc1nnc(Cc2ccc(Cl)cc2)s1)c1ccco1	-6.1%
COc1ccc([N+](=O)[O-])cc1NC(=O)c1cn(-c2ccc(C)c(C)c2)c(=O)c2ccccc12	-13.4%
Cc1ccc(-n2ncc3c(NCCCN4CCCC4=O)ncnc32)c(C)c1	-25.6%
Cn1cnnc1SCC(=O)Nc1sc2c(c1C(N)=O)CCC2	17.8µM*
O=C(Oc1ccccc1N1C(=O)C2CCCCC2C1=O)c1ccccc1 (stereo not given)	-2.1%
O=C(NCCc1ccccc1)C1CCCN(S(=O)(=O)c2cccc3nonc23)C1 (stereo not given)	-9.3%
FC(F)(F)c1cc(-c2ccco2)nc(NCc2ccco2)n1	-4.6%
COc1cccc(-c2nnc(SCCC(=O)O)n2C)c1	-14.2%
COCc1nnc(NC(=O)CCSc2ccccc2)s1	-16.8%
COCc1cc(=O)n2[nH]c(-c3cccc(Br)c3)cc2n1	-16.7%
COC(=O)N/N=C(\C)c1ccc(OC(F)F)cc1OC(F)F	-2.0%
CCOC(=O)C1C(C(=O)OC)=C(C(=O)OC)c2ccccc2N1S(=O)(=O)C(F)(F)F (stereo not given)	-13.2%
C/C(=N\Nc1ccc([N+](=O)[O-])cc1)c1ccc(N)cc1	-21.9%
CC(C)CNS(=O)(=O)c1ccc(S(=O)(=O)N2CCCN(Cc3ccccc3)C2)cc1	-12.9%
Cn1c(SCCOc2ccccc2Cl)nnc1-c1ccncc1	-12.3%
CNc1nc(SCC(=O)OC)nc(N2CCOCC2)n1	-12.9%
CC(C)CC1(C(=O)O)C=CCN1C(=O)c1ccccc1 (stereo not given)	-3.5%
CCOc1ccc(NC(=O)N2CCC(n3c(=O)[nH]c4ccccc43)CC2)cc1	-10.2%
C=C1c2c(Cl)ccc(O)c2C(O)=C2C(=O)[C@@]3(O)C(O)=C(C(N)=O)C(=O)[C@@H](N(C)C)[C@@H]3[C@@H](O)[C@H]12	-21.2%
Cc1nc2ccc(S(=O)(=O)Nc3cccc(-c4nc5cccnc5s4)c3C)cc2s1	-25.8%
Cc1cccc(C)c1NC(=O)N1C2CCCC1CC(NC(=O)C(C)(C)C)C2 (stereo not given)	-1.5%
Cc1ccccc1SCC(=O)Nc1cccc(C#N)c1	-6.6%
CC(Nc1oc(-c2ccccc2)nc1-c1cccc2ccccc12)c1ccccc1 (stereo not given)	-3.6%
S=c1nc(-c2ccccc2)n(Cc2ccco2)c2c1CCCC2	?
COC(=O)C1(C(=O)OC)CC2=CC(CC2=O)Cc2ccccc2[C@@H]1C[N+](=O)[O-] (stereo not given in full)	-4.1%
COC(=O)c1ccc(C23CC4(C2)[C@H](CN(Cc2cccnc2)[C@@H]4c2ccccc2)C3c2ccccc2)cc1 (stereo not given in full)	-9.2%
Cc1cc(N2CCC(C(=O)NC3CCCCC3)CC2)nc(-c2ccccc2)n1	-12.7%
NS(=O)(=O)c1ccc(CCNC(=O)C2CCCN2C(=O)OCc2ccccc2)cc1 (stereo not given)	-8.1%
CCn1c(N2CCN(CC(=O)c3ccc(OC)cc3)CC2)nc2ccccc21	-4.5%
CCCCCNCCCCC	-3.9%
CCCCCCC(=O)Nc1ccc(C(=O)N/N=C/c2cccnc2)cc1	?
CC(=O)Nc1nnc(SCC(=O)c2ccc3c(c2)Cc2ccccc2-3)s1	-12.8%
CC1CCN(c2ccc(/C=N\Nc3nncn3N)cc2[N+](=O)[O-])CC1	-9.1%
O=c1c(-c2ccc(F)cc2)coc2c3c(ccc12)OCCO3	-11.1%
N#CCC(=N)N1CCN(c2ccccc2)CC1	-7.7%
CCOC(=O)Oc1ccc2c(=O)c(Oc3cc(C)cc(C)c3)coc2c1	-2.4%
O=c1c2c3c(sc2ncn1/N=C/c1ccccc1)CCCC3	0.1%

Reprinted at random: 4 entries already listed
SMILES	HPGD inh
CCOc1ccc(OCC)c(NC(=O)CN2CCN(c3cccc(C)c3C)CC2)c1	-3.2%
C=CCn1cc(/C=N/Nc2nc3ccccc3[nH]2)c2ccccc21	?
O=C(NCCN1C(=O)S/C(=C\c2ccc(Cl)cc2)C1=O)c1ccc(F)c(S(=O)(=O)N2CCOCC2)c1	-10.7%
CCN1CCN(CCNC(=O)CSCc2nc(-c3ccc(OC)c(OC)c3)oc2C)CC1	?
